Assay outcomes as filed in PubChem BioAssay.
Vaccinia mCherry = qHTS for Stage-Specific Inhibitors of Vaccinia Orthopoxvirus: mCherry Reporter Primary qHTS; AID 720579, 2013; Potency, µM (titrated, usually from 36.5 µM), for inactives: top-dose activity change, negative = inhibition, hits mostly inhibitors; 0.63% of 310,000 active; Vaccinia virus mCherry reporter infection, fluorescence; about a quarter of the inactives have no number; active = well fitted inhibition curve with a large enough effect; inconclusive = small, poorly fitted or top-dose-only effect; inactive = no such curve, though single readings can be large or run the other way; tested in A549 cells; also: nearly all actives have a fitted effect of over 35% in size; inactives centre near -10
Vaccinia Venus = qHTS for Stage-Specific Inhibitors of Vaccinia Orthopoxvirus: Venus Reporter Primary qHTS. AID 720580, 2013. 0.46% of 330,000 active. Potency, µM (titrated, usually from 36.5 µM), inactives show at the top dose activity change, negative = inhibition, actives largely listed as inhibitors. Vaccinia virus Venus reporter expression, fluorescence; active means well fitted inhibition curve with a large enough effect; inconclusive means small, poorly fitted or top-dose-only effect; inactive means no such curve, though single readings can be large or run the other way; tested in A549 cells; also: nearly all actives have a fitted effect of over 30% in size; inactives centre near -10
Active calls of the source: *; i = inactive; ? = inconclusive; . = no result given; [ ] = remark or other dose. % is scaled to controls: 0 for no effect and ±100 for the full control effect; potency is read from the fitted curve at half-maximal effect.

Preview, three compounds:
The line under a structure holds: Vaccinia mCherry, Vaccinia Venus
COc1ccc(N(C(=O)C(C)C)S(=O)(=O)c2cccc3cccnc23)cc1
 : ?, -26%
CS(=O)(=O)N(CC(=O)N1CCc2ccccc2C1)c1ccc(Cl)cc1F
 : -9%, -23%
CCCCCCCCCCCCCCC[C@@H](O)[C@H](CO)NC(=O)CCCCCCC
 : i[3.33 µM], -6%[3.33 µM]

Results, repeating the preview:
The line under a structure holds: Vaccinia mCherry, Vaccinia Venus
COc1ccc(N(C(=O)C(C)C)S(=O)(=O)c2cccc3cccnc23)cc1
 : ?, -26%
CS(=O)(=O)N(CC(=O)N1CCc2ccccc2C1)c1ccc(Cl)cc1F
 : -9%, -23%
CCCCCCCCCCCCCCC[C@@H](O)[C@H](CO)NC(=O)CCCCCCC
 : i[3.33 µM], -6%[3.33 µM]
CC(C)c1nnc(NC(=O)CCC(=O)NCc2ccc3c(c2)OCO3)s1
 : -15%, -4%
O=C(O)CCC(=O)N1CCN(c2ccccn2)CC1
 : i, -14%
Cc1ccc(C(=O)N2CCc3ccccc32)cc1
 : ?, -24%
Cc1cc(=O)c2c(N(C)C)cccc2[nH]1
 : ?, -22%
Cc1cccc(NC(=O)NC(C)CCc2ccccc2)c1 (stereo not given)
 : i, -14%
CNC(=O)c1c(NC(=O)c2ccc(S(=O)(=O)N3CCCCC3C)cc2)sc2c1CCC2 (stereo not given)
 : -26%, -19%
Cc1ccc(Cl)cc1-n1c(=O)c2sc3ccccc3c2n(CC(=O)NC2CCCCC2)c1=O
 : 8%, 0%
Cc1c(C=O)c2ccccc2n1CC(=O)NC(C)c1ccccc1 (stereo not given)
 : -6%, 10%
CCc1ccc(CNC(=O)C2CCCN(c3nn4cc(-c5ccc(F)cc5)nc4s3)C2)cc1 (stereo not given)
 : i, -18%
CC(Oc1ccc(Br)cc1)C(=O)NCc1ccccn1 (stereo not given)
 : -5%, 0%
O=[N+]([O-])/C(C(Cl)=C(Cl)Cl)=C(\Sc1ccccc1)N1CCCCC1
 : -17%, -27%
c1ccc(CNc2ncnc3c2ncn3Cc2ccccc2)cc1
 : -6%, -17%
Cc1cc(C)n(C(=O)CCCn2cc([N+](=O)[O-])cn2)n1
 : -3%, -13%
Cc1cc(C(=O)N/N=C/c2cccc([N+](=O)[O-])c2)c2ccccc2n1
 : -19%, -25%
CC(=O)N1CCC(C(=O)NCCOc2ccc(C)cc2)CC1
 : i, -6%
O=C(CS(=O)(=O)c1ccccc1)Nc1ccc(Br)cn1
 : -15%, -14%
O=C(COc1ccc(Br)cc1CNCCc1ccccc1)NCc1ccccc1
 : -10%[7.34 µM], -8%[7.34 µM]
O=C(CSc1nnnn1-c1cccnc1)Nc1ccccc1F
 : -9%, -2%
O=C(/C=C/c1ccccc1)NNC(=O)c1cccs1
 : -20%, -17%
COc1ccc2c(c1)[nH]c1c(=O)n(/N=C/c3ccc(OC)c(COc4ccccn4)c3)cnc12
 : ?, -10%
CC(=O)N(c1ccccc1)c1ccc([N+](=O)[O-])cc1[N+](=O)[O-]
 : -17%, -8%
CC1=Nc2ccccc2N=C(NC(=O)CSC(=S)N2CCN(C)CC2)C1c1ccccc1 (stereo not given)
 : -24%, -9%
Cc1ccccc1NC(=O)CSc1nnc(C)c2ccccc12
 : -11%, -8%
COc1cc(C2C3=C(CC(C)(C)CC3=O)N(C)C3=C2C(=O)CC(C)(C)C3)ccc1O
 : -4%, -16%
COc1cc(CNCc2ccco2)ccc1OCc1ccccc1
 : 0%, -7%
Cc1ccccc1C(=O)N1CCC(n2nccc2NC(=O)CCOc2ccccc2)CC1
 : ?, ?
CCN(C[C@H]1N[C@@](C)(C(=O)OC)[C@H]2C(=O)N(Cc3ccccc3)C(=O)[C@@H]12)C(=O)Nc1ccc(OC)cc1
 : -2%, -17%

More records.
The line under a structure holds: Vaccinia mCherry, Vaccinia Venus
NS(=O)(=O)c1ccc(CCNC(=O)CC(NC(=O)c2ccccc2Cl)c2ccccc2)cc1 (stereo not given)
 : -12%, -9%
COc1cccc(N2CCN(CC(=O)C34CC5CC(CC(C5)C3)C4)CC2)c1
 : -5%, -15%
C=CCC[C@H](Cc1ccc(F)cc1)C(=O)OC[C@@H](Cc1c[nH]c2ccccc12)NC(=O)[C@H](CC=C)CC(=O)N(CCO)Cc1ccccc1
 : ?, 10µM*
O=C(O)/C(=C/c1ccc(Cl)c([N+](=O)[O-])c1)c1ccc(S(=O)(=O)N2CCCCC2)s1
 : -2%, 8%
COc1ccc(-c2cn3c(n2)sc2cc(C(=O)Nc4ccc(C)c(C)c4)ccc23)cc1
 : -15%, -7%
O=C(NCC1CCCO1)c1ccc(S(=O)(=O)Nc2ccc(F)cc2)cc1 (stereo not given)
 : -13%, -10%
CC(OC(=O)c1nsc(Cl)c1Cl)C(=O)NCc1ccc2c(c1)OCO2 (stereo not given)
 : -13%, 3%
CC1=C(C(=O)Nc2ccccc2)C(c2ccc(N(C)C)cc2)NC(=O)N1 (stereo not given)
 : -18%, -13%
Cc1cccn2c(CN3CCCC(c4ccccc4)C3)c(C(=O)N3CCOCC3)nc12 (stereo not given)
 : -2%, -11%
Cc1ccc(OCc2nnc(SC3CCc4ccccc4C3=O)n2C)cc1 (stereo not given)
 : -10%, -21%
Cc1cnc(C(=O)OCC(=O)N(Cc2ccccc2)C(C)(C)C)cn1
 : -8%, -5%
Fc1ccc(N2CCN(c3ncnc4[nH]ncc34)CC2)cc1
 : 7%, 14%
C[C@@H]1COC(=O)[C@H](Cc2ccc(F)cc2)CC/C=C/C[C@@H](CC(=O)N[C@H](CO)Cc2ccccc2)C(=O)N1
 : i, -20%
COc1ccccc1/C=C/c1nc2ccccc2o1
 : -13%, -8%
O=C(CCc1c[nH]c2ccccc12)Nc1ccc(S(=O)(=O)Nc2ncccn2)cc1
 : 7%, 3%
Cc1[nH]c(C)c(Cl)c(=O)c1Cl
 : -14%, 1%
Cc1cccc(Nc2ccc([N+](=O)[O-])cc2C(=O)O)c1
 : i, -1%
COc1cccc(-c2ncc3ccccc3c2COC(=O)CCCC(=O)O)c1
 : i, -12%
Cc1ccc2c(c1)N(CC(=O)Nc1ccccc1F)C(=O)C(C)O2 (stereo not given)
 : -3%, -12%
CN(C)c1ccc(/C=[N+](\[O-])C2SC(=S)N(C)C2(C)C)cc1 (stereo not given)
 : -14%, -5%
Cc1cccc(CN2[C@H](COCc3ccccc3)C=CS2(=O)=O)c1
 : i, 1%
O=C(Cc1n[nH]c(=O)[nH]c1=O)N/N=C/c1cccc(Cl)c1
 : -16%, 8%
Cc1cccc(C(=O)OCC(=O)N2CCCCCC2)c1C
 : i, -7%
CCOC(=O)C1(Cc2ccccc2C(F)(F)F)CCN(C2CCSC2)CC1 (stereo not given)
 : -9%, -7%
O=C(Nc1ccc(O)c(-c2nc3ccccc3o2)c1)c1sc2ccccc2c1Cl
 : -8%, 1%
COc1ccc(OC)c(S(=O)(=O)NCCS(=O)(=O)N2CCN(c3ccccc3)CC2)c1
 : -9%, -16%[7.34 µM]
CC1=CN(S(=O)(=O)c2ccc(C)cc2)C[C@@H]2c3ccccc3N(S(=O)(=O)c3ccc(C)cc3)[C@H]12
 : ?, -9%
CN(C)c1ccc(/C=N/n2cnn(Cc3ccccc3Cl)c2=S)cc1
 : i, -6%
COc1cc(NC(=S)N2CCCCC2C)cc(OC)c1OC (stereo not given)
 : ?, -14%
COc1ccc(C2CC(=O)C=C(NCc3ccccc3)C2)cc1 (stereo not given)
 : -5%, ?

Single records (already shown). Values in the order: Vaccinia mCherry, Vaccinia Venus
O=C(Nc1ccc(O)c(-c2nc3ccccc3o2)c1)c1sc2ccccc2c1Cl in the list: -8%, 1%
Cc1cccc(C(=O)OCC(=O)N2CCCCCC2)c1C in the list: i, -7%
Cc1cccn2c(CN3CCCC(c4ccccc4)C3)c(C(=O)N3CCOCC3)nc12 (stereo not given) in the list: -2%, -11%
O=C(O)/C(=C/c1ccc(Cl)c([N+](=O)[O-])c1)c1ccc(S(=O)(=O)N2CCCCC2)s1 in the list: -2%, 8%

Remaining list, next part
The line under a structure holds: Vaccinia mCherry, Vaccinia Venus
Cc1ccc(-c2cc(C(=O)NCc3ccccn3)no2)cc1
 : i, -12%
COc1cc(/C=C(\C#N)C(=O)c2ccc(O)c(O)c2)cc(I)c1O
 : -14%, 58%[activator]
CCc1nnc(NC(=O)C(NS(=O)(=O)c2ccccc2)C(C)C)s1 (stereo not given)
 : i, -11%
O=C1N/C(=C/c2cccs2)C(=O)N1Cc1ccccc1F
 : -9%, -9%
CCC1(c2ccc(Cl)cc2)NC(=O)N(CC(=O)NCc2ccc(F)cc2)C1=O (stereo not given)
 : -25%, -25%
CCCCCCn1c(=O)n2n(c1=O)C[C@]1(OC(=O)NCc3ccco3)CN(S(=O)(=O)c3ccc(C)cc3)C[C@]1(O)C2
 : i, -22%
O=c1[nH][nH]c2c1C(c1cccc(C(F)(F)F)c1)OC(CCc1ccccc1)C2 (stereo not given)
 : -4%, -11%
CCCCCCN1CCN(C2CN(Cc3cn(Cc4cccc(Cl)c4)nn3)S(=O)(=O)C2)CC1 (stereo not given)
 : -21%, -12%
COCCCC1CCN(C(=O)c2cc(COc3ccc(C)nc3)on2)CC1
 : -1%, -12%
CCSc1nnc(NC(=O)C(NC(=O)c2ccc(Cl)cc2)C(C)C)s1 (stereo not given)
 : i, -8%
COc1ccc(C2CC(=O)Nc3n[nH]c(-c4ccccc4)c32)cc1OC (stereo not given)
 : -9%, -26%
CCC[C@H]1CN(c2ccc(OC)cc2)C(=O)[C@@H]1CC(=O)NC
 : i, -8%
O=C(Nc1nnc(SCc2ccc(F)cc2)s1)c1ccc2c(c1)C(=O)N(c1ccccc1Cl)C2=O
 : -4%, -11%
Cc1cc(Cl)c(OCCCNC2CCCC2)c(Br)c1
 : ?, -18%
COc1ccccc1NC(=O)C(NC(=O)c1ccc(C)cc1)c1ccccc1 (stereo not given)
 : -13%, -13%
O=C(O)c1cc2c(s1)-c1ccccc1CC2
 : -13%, -4%
COc1ccccc1N1CCN(C(=O)CN2C(=O)COc3ccc(S(=O)(=O)N4CCCCCC4)cc32)CC1
 : -19%, -11%
O=C(CN1CCN(S(=O)(=O)c2ccccc2)CC1)Nc1ccc2c(c1)OCO2
 : -14%, -7%
CCN1C(=O)CC(c2ccccc2)N(C2CCCC2)c2nc(Nc3ccc(C(=O)NC4CCN(C)CC4)cc3OC)ncc21 (stereo not given)
 : -25%, ?
COc1ccccc1Cc1nc2ccccc2nc1SCC(=O)Nc1c(C)cccc1C
 : -8%, -4%
O=c1c2cc(Br)ccc2[nH]c(=S)n1Cc1ccccn1
 : i, -6%
CCSc1cc(N2CCCC2)nc(-c2ccc(C)cc2)n1
 : -15%, -7%
COc1ccccc1NC(=O)COC(=O)C1CCN(/C=C/C(=O)C(F)(F)F)CC1
 : -4%, -11%
Cc1cccc(N(C(=O)c2snc(C(N)=O)c2N)C(C)C(=O)NCC2CCCO2)c1 (stereo not given)
 : i, -12%
Cc1ncc2c(c1CNC(=O)c1ccc3c(c1)OCO3)CCN(C(=O)C1Cc3ccccc3O1)C2 (stereo not given)
 : -2%, 13%
CN(C)/N=C/c1cc([N+](=O)[O-])ccc1O
 : -28%, -9%
NC(=O)Cc1nc(-c2ccc(Br)cc2)cs1
 : i, -11%
O=C(CSc1ccc2nnc(-c3ccccn3)n2n1)N1CCOCC1
 : -5%, 1%
COCCNC(=O)COc1ccccc1C
 : ., -12%
CN(CC(=O)N1CCCCC1)S(=O)(=O)c1cccc2cccnc12
 : i, 2%

Next part.
The line under a structure holds: Vaccinia mCherry, Vaccinia Venus
O=C1OCCC1Sc1ncnc2sccc12 (stereo not given)
 : ., -14%
CCCc1nn2c(=O)cc(COC(=O)c3ccc(NC(=O)C4CCCCC4)cc3)nc2s1
 : -22%, -18%
O=C(COC(=O)C1=COCCO1)NC(=O)c1ccc(OC(F)F)cc1
 : -12%, -6%
CCc1nn(CC(=O)N2CCN(c3cccc(C)c3C)CC2)c(=O)c2cc3occc3n12
 : -6%, -10%
Cc1ccc(-c2nc3c(Cl)cc(C(F)(F)F)cn3c2Cc2ccsc2)cc1
 : i, -4%
CCCCNC(=O)N1CCN(c2ccnc3cc(Cl)ccc23)CC1
 : -18%, -22%
Cn1cc(/C=C2\C(=O)NC(=O)N(c3ccccc3)C2=O)c2ccccc21
 : -4%, -6%
COc1ccc(Cc2nnc(NC(=O)c3cc(OC)c(OC)c(OC)c3)s2)cc1OC
 : -8%, -24%
O=C(CCCN1C(=O)/C(=C/c2cccs2)SC1=S)Nc1ccc(C(=O)O)cc1
 : 4%, 2%
CCOC(=O)CNC(=O)N1Cc2cc(-c3cccc(F)c3)ccc2-n2nncc2C1
 : 6%, -5%
O=C(NC1CCCCC1)C(c1ccccn1)N(C(=O)c1csnn1)c1ccccc1 (stereo not given)
 : -29%, 21%
CCOC(=O)c1cnc2ncnn2c1N
 : i, -1%
Nc1cc(Cl)ccc1CN1C(=O)c2ccccc2C1=O
 : 8%, 7%
O=C(Nc1cc(S(=O)(=O)N2CCOCC2)ccc1N1CCCC1)C1CC1
 : i, -13%
O=C(NCc1cccc(Cl)c1)C1Cc2c(-c3ccc(Cl)cc3)ccnc2O1 (stereo not given)
 : -8%, -29%
Cc1ccc(-c2csc(NC(=O)c3ccc(S(=O)(=O)N4CCc5ccccc54)cc3)n2)cc1
 : -13%, -20%
COc1ccc(-n2c(COc3ccc(Cl)cc3)nnc2SCc2ccc(C#N)cc2)cc1
 : ?, ?
